From PubChem BioAssay
Vaccinia stage = blocks a specific stage of Vaccinia orthopoxvirus infection; 89,000 compounds, 0.01% hits; Vaccinia-infected cells, mCherry/Venus stage reporter fluorescence; stronger effect = lower value; some inactives read as strong as hits; activity change (mCherry), % (test concentration not listed);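 active = mCherry past -33% and 40 or more points under the early reporter, replicates agreeing; inconclusive = past -33% without that gap or agreement; tested in A549 cells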;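 note: scaled between vehicle wells and reference inhibitor wells; 23 nL library stock went into each well; one replicate is shown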
Vaccinia stage Venus = further read-out of Vaccinia stage, marked with its call; activity change (Venus), %; measured here: Venus reporter, other viral stage;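 negative = less Venus signal; first of two replicates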
The depositor's hits bear a star; ? = inconclusive; . = not tested or not shown. This is a subset; count on the stated rates, not on these rows.

SMILES | Vaccinia stage | Vaccinia stage Venus
C[C@H](O)C#Cc1ccc2c(c1)O[C@H](CN(C)Cc1cccnc1)[C@@H](C)CN([C@H](C)CO)S2(=O)=O | -8 | -11
O=C(C[C@H]1C[C@H]2c3cc(NC(=O)C4CCOCC4)ccc3O[C@H]2[C@@H](CO)O1)NC1CCCCC1 | 21 | 8
C[C@@H]1CN([C@@H](C)CO)C(=O)Cc2cc(NC(=O)Cc3ccccc3)ccc2O[C@H]1CN(C)C(=O)NC1CCCCC1 | 1 | 3
CN1CCCCN2[C@H](CO)[C@H](c3ccc(C#CC4(O)CCCC4)cc3)[C@H]2C1 | 15 | -8
Cc1noc(C)c1NC(=O)N(C)C[C@H]1OCCCC[C@@H](C)Oc2ccc(NC(=O)CCC(F)(F)F)cc2C(=O)N([C@@H](C)CO)C[C@H]1C | 30 | 12
COc1ccc(CN(C)C[C@H]2OCCCC[C@@H](C)Oc3ccc(NC(=O)Nc4c(C)noc4C)cc3C(=O)N([C@H](C)CO)C[C@H]2C)cc1 | 12 | 3
CN1CCN(C(=O)C[C@@H]2CC[C@@H]3[C@H](COC[C@@H](O)CN3Cc3cccc(-c4ccncc4)c3)O2)CC1 | ? | .
O=C(C[C@@H]1C[C@@H]2c3cc(NC(=O)CC4CC4)ccc3O[C@@H]2[C@H](CO)O1)NCCN1CCCCC1 | 8 | 8
O=C(NC1Cc2ccccc2C1)[C@H]1[C@H](CO)[C@H]2Cn3c(cccc3=O)[C@H]2N1C(=O)c1ccccn1 | 0 | 2
COc1cccc(-c2cnc3c(c2)C(=O)N([C@H](C)CO)C[C@H](C)[C@H](CN(C)C(=O)Nc2ccc4c(c2)OCO4)O3)c1 | ? | .

Of the compounds above, these have an aryl methoxy group.
SMILES | Vaccinia stage | Vaccinia stage Venus
COc1ccc(CN(C)C[C@H]2OCCCC[C@@H](C)Oc3ccc(NC(=O)Nc4c(C)noc4C)cc3C(=O)N([C@H](C)CO)C[C@H]2C)cc1 | 12 | 3
COc1cccc(-c2cnc3c(c2)C(=O)N([C@H](C)CO)C[C@H](C)[C@H](CN(C)C(=O)Nc2ccc4c(c2)OCO4)O3)c1 | ? | .

Continuation.
SMILES | Vaccinia stage | Vaccinia stage Venus
CCCc1cn(CC[C@@H]2CC[C@H](NC(=O)C3CCCC3)[C@H](CO)O2)nn1 | -4 | 6
CCC(=O)Nc1ccc2c(c1)C(=O)N(C)[C@@H]1CC[C@H](CC(=O)NCC3CCCCC3)O[C@H]1CO2 | -7 | 2
Cc1ccc(S(=O)(=O)N(C)C[C@@H]2Oc3c(NC(=O)C4CC4)cccc3C(=O)N([C@H](C)CO)C[C@@H]2C)cc1 | 0 | 1
COc1ccc(NC(=O)N(C)C[C@H]2OCCCC[C@@H](C)Oc3ccc(NC(=O)CCC(F)(F)F)cc3C(=O)N([C@@H](C)CO)C[C@@H]2C)cc1 | 2 | 3
Cc1noc(C)c1C(=O)N(C)C[C@H]1OCc2ccccc2-c2c(n(C)c3ccccc23)C(=O)N([C@@H](C)CO)C[C@H]1C | 13 | -2
O=C(Nc1cc(F)ccc1F)N1CC(=O)N2[C@H](CO)[C@@H](c3ccc(-c4ccccc4)cc3)[C@H]2C1 | ? | .
CNC[C@H]1OCCCC[C@@H](C)Oc2ccc(N)cc2C(=O)N([C@H](C)CO)C[C@@H]1C | -6 | 5
C[C@H](CO)N1C[C@H](C)[C@@H](CN(C)Cc2ccc(Cl)c(Cl)c2)Oc2c(NS(=O)(=O)c3cn(C)cn3)cccc2C1=O | 11 | 9
CCCC#Cc1cnc2c(c1)C(=O)N([C@H](C)CO)C[C@@H](C)[C@H](CN(C)C(=O)C1CCC1)O2 | 1 | -2
O=C1CNC[C@@H]2[C@H](c3ccc(C#Cc4cccnc4)cc3)[C@@H](CO)N12 | 10 | 5
C[C@@H]1CN([C@H](C)CO)C(=O)c2cc(NC(=O)CCCN(C)C)ccc2O[C@H]1CN(C)S(C)(=O)=O | 3 | 0
COc1ccccc1C(=O)Nc1ccc2c(c1)C(=O)N(C)[C@H]1CC[C@H](CC(=O)NCc3ccc(Cl)c(Cl)c3)O[C@@H]1CO2 | 24 | 9
COc1ccc2c3c([nH]c2c1)[C@H](CO)N(C(=O)C1CCC1)CC31CN(C(=O)c2ccncc2)C1 | 12 | 3
C[C@H]1CN([C@@H](C)CO)C(=O)Cc2cc(NC(=O)Cc3ccccc3)ccc2O[C@@H]1CN(C)Cc1ccccc1 | -12 | 6
CO[C@H]1CN(C)C(=O)c2cc(NC(=O)c3ccccc3F)ccc2OC[C@@H](C)NC[C@H]1C | 4 | 5
Cc1ccc(S(=O)(=O)N[C@H]2CC[C@H](CCn3cc(C4CC4)nn3)O[C@H]2CO)cc1 | -4 | -1
CN1CCN(C(=O)C[C@H]2C=C[C@H](NC(=O)c3ccc4c(c3)OCO4)[C@@H](CO)O2)CC1 | 1 | 5
C[C@H](CO)N1C[C@H](C)[C@@H](CN(C)Cc2cncnc2)Oc2cc(-c3ccccc3)ccc2S1(=O)=O | -11 | -21
CNC[C@H]1OCCCC[C@H](C)Oc2ccc(NC(=O)c3ccncc3)cc2C(=O)N([C@H](C)CO)C[C@@H]1C | 5 | 0
COc1ccc(NC(=O)N(C)C[C@@H]2Oc3ccc(NC(=O)Nc4ccccc4)cc3C(=O)N([C@H](C)CO)C[C@H]2C)cc1 | 3 | 11
C[C@@H]1CCCCO[C@H](CN(C)C(=O)Nc2ccc(C(F)(F)F)cc2)[C@H](C)CN([C@H](C)CO)C(=O)c2cc(NS(=O)(=O)c3cccs3)ccc2O1 | 36 | 167
CC(=O)Nc1ccc2c(c1)C(=O)N(C)[C@H]1CC[C@@H](CC(=O)NCC3CC3)O[C@@H]1CO2 | 13 | 12
CN(C)C(=O)[C@H]1[C@H](CO)[C@H]2Cn3c(ccc(-c4ccccc4)c3=O)[C@H]2N1Cc1ccccc1F | -7 | 5
C[C@H](CO)N1C[C@H](C)[C@H](CN(C)Cc2ccccc2)OCCCC[C@H](C)Oc2ccc(NC(=O)Nc3ccc4c(c3)OCO4)cc2C1=O | ? | .
COCC(=O)N1C[C@@H](C)[C@@H](OC)CN(C)C(=O)c2ccc(NC(=O)c3ccccc3)cc2OC[C@@H]1C | 3 | 12
O=C(c1ccc2c(c1)OCO2)N1CC[C@@H]2[C@@H](CO)Nc3ccc(-c4ccc(F)cc4)cc3[C@@H]21 | 0 | -5
COc1ccc(S(=O)(=O)Nc2ccc3c(c2)C(=O)N([C@@H](C)CO)C[C@H](C)[C@@H](CN(C)S(=O)(=O)c2ccc(F)cc2)OCCCC[C@@H](C)O3)cc1 | -24 | -21
C[C@@H]1CCCCO[C@@H](CN(C)C(=O)Nc2ccc(C(F)(F)F)cc2)[C@H](C)CN([C@@H](C)CO)C(=O)c2cc(NS(=O)(=O)c3ccc(F)cc3)ccc2O1 | -25 | -16
CO[C@@H]1CN(C)C(=O)c2cc(NC(=O)c3ccccc3F)ccc2OC[C@@H](C)N(CC2CC2)C[C@@H]1C | -9 | -8
O=C(C[C@H]1CC[C@@H]2[C@H](COC[C@@H](O)CN2S(=O)(=O)c2ccc(Cl)cc2)O1)NCc1ccncn1 | 3 | 2

A section from further up:
SMILES | Vaccinia stage | Vaccinia stage Venus
C[C@@H]1CCCCO[C@@H](CN(C)C(=O)Nc2ccc(C(F)(F)F)cc2)[C@H](C)CN([C@@H](C)CO)C(=O)c2cc(NS(=O)(=O)c3ccc(F)cc3)ccc2O1 | -25 | -16
CO[C@@H]1CN(C)C(=O)c2cc(NC(=O)c3ccccc3F)ccc2OC[C@@H](C)N(CC2CC2)C[C@@H]1C | -9 | -8
O=C(C[C@H]1CC[C@@H]2[C@H](COC[C@@H](O)CN2S(=O)(=O)c2ccc(Cl)cc2)O1)NCc1ccncn1 | 3 | 2

Other structures follow:
SMILES | Vaccinia stage | Vaccinia stage Venus
O=C(NCc1ccccc1)C1=C[C@H](C2CC2)C[C@H](OCc2ccc(CO)cc2)O1 | 5 | 7
C[C@@H]1CN([C@@H](C)CO)C(=O)CCCn2cc(nn2)CO[C@@H]1CN(C)S(=O)(=O)c1ccc(F)cc1 | 1 | 1
COc1ccc(S(=O)(=O)Nc2ccc3c(c2)C(=O)N([C@@H](C)CO)C[C@@H](C)[C@H](CN(C)C(=O)CCC(F)(F)F)OCCCC[C@@H](C)O3)cc1 | 4 | 8
C[C@H](CO)N1C[C@H](C)[C@@H](CN(C)Cc2ccccc2)OCCCC[C@H](C)Oc2ccc(NS(=O)(=O)c3ccc(Cl)cc3)cc2C1=O | ? | .
Cc1ccc(-c2ccc([C@@H]3[C@H](CO)N4C(=O)CN(C(=O)c5ccccc5)C[C@@H]34)cc2)cc1 | ? | .
COc1ccccc1NC(=O)N(C)C[C@H]1Oc2ncc(C#CCN(C)C)cc2C(=O)N([C@H](C)CO)C[C@@H]1C | 12 | 7
C[C@@H]1CN([C@@H](C)CO)C(=O)CCCn2cc(nn2)CO[C@H]1CN(C)C(=O)Nc1ccc(N2CCCCC2)cc1 | 7 | 5
C[C@@H](O)C#Cc1ccc2c(c1)O[C@H](CN(C)C(=O)c1ccccc1)[C@@H](C)CN([C@@H](C)CO)S2(=O)=O | 3 | -1
COc1cccc(NC(=O)N[C@@H]2C=C[C@@H](CC(=O)Nc3ccccc3)O[C@H]2CO)c1 | -13 | -11
C[C@@H]1CCCCO[C@@H](CN(C)S(=O)(=O)c2ccccc2)[C@@H](C)CN([C@H](C)CO)C(=O)c2cc(NC(=O)CCCCCC(=O)Nc3ccccc3N)ccc2O1 | 31 | 15
C[C@H]1CN([C@@H](C)CO)C(=O)Cc2cc(NC(=O)Cc3ccccc3)ccc2O[C@@H]1CN(C)S(=O)(=O)c1cccs1 | 1 | -4
C[C@H]1CN([C@@H](C)CO)C(=O)c2cccc(NS(=O)(=O)c3ccc(Cl)cc3)c2O[C@@H]1CN(C)S(=O)(=O)c1cccs1 | 15 | 13
CC(=O)NC[C@@H]1[C@H](c2ccc(-c3ccccc3F)cc2)[C@H](CO)N1C(=O)C1CC1 | 11 | 11
Cc1noc(C)c1NC(=O)Nc1cccc2c1O[C@@H](CN(C)C(=O)NC(C)C)[C@H](C)CN([C@@H](C)CO)C2=O | 3 | -4
CCCN1[C@@H]2c3ccc(-c4cccc(F)c4)c(=O)n3C[C@@H]2[C@@H](CO)[C@@H]1C(=O)N[C@@H](C)c1ccccc1 | -34 | -10
CN1C(=O)c2cc(NC(=O)c3ccccc3)ccc2OC[C@H]2O[C@H](CC(=O)NC3CCCC3)CC[C@@H]21 | 15 | 8
Cc1noc(C)c1NC(=O)N(C)C[C@H]1Oc2ccc(NS(=O)(=O)c3c(C)noc3C)cc2C(=O)N([C@H](C)CO)C[C@@H]1C | -6 | 0
COc1ccc(CN(C)C[C@@H]2Oc3ccc(NC(=O)NC(C)C)cc3CC(=O)N([C@@H](C)CO)C[C@@H]2C)cc1 | 7 | -1
CCC(=O)N(C)C[C@@H]1Oc2cc(-c3ccncc3)ccc2S(=O)(=O)N([C@H](C)CO)C[C@@H]1C | 16 | 5
O=C(NCC[C@H]1CC[C@H](NC(=O)C2CC2)[C@@H](CO)O1)c1ccc(F)cc1 | 8 | 12

Whole records as entered above:
`COc1ccccc1NC(=O)N(C)C[C@H]1Oc2ncc(C#CCN(C)C)cc2C(=O)N([C@H](C)CO)C[C@@H]1C` is listed with Vaccinia stage: 12; Vaccinia stage Venus: 7
`C[C@@H]1CN([C@@H](C)CO)C(=O)CCCn2cc(nn2)CO[C@H]1CN(C)C(=O)Nc1ccc(N2CCCCC2)cc1` is listed with Vaccinia stage: 7; Vaccinia stage Venus: 5

(further entries)
SMILES | Vaccinia stage | Vaccinia stage Venus
COc1cccc(C#Cc2ccc3c(c2)O[C@@H](CN(C)C)[C@@H](C)CN([C@H](C)CO)S3(=O)=O)c1 | -33 | -18
COc1ccc(CN(C)C[C@H]2OCCCC[C@H](C)Oc3ccc(NC(=O)Nc4ccc(F)cc4)cc3C(=O)N([C@@H](C)CO)C[C@@H]2C)cc1 | ? | .
O=C(NCC[C@@H]1CC[C@H](NC(=O)c2ccncc2)[C@H](CO)O1)Nc1ccc(Cl)cc1 | -3 | 6
N#C[C@H]1[C@H](c2ccc(C#Cc3ccccc3F)cc2)[C@@H](CO)N1C(=O)c1cccnc1 | -18 | -16
C[C@@H]1CN([C@H](C)CO)C(=O)c2cc(NC(=O)Nc3ccc4c(c3)OCO4)ccc2O[C@@H](C)CCCCO[C@H]1CN(C)C(=O)c1ccccc1 | 15 | 3
C[C@H](CO)N1C[C@H](C)[C@H](CN(C)C(=O)C2CCC2)Oc2cc(C#CC3CC3)ccc2S1(=O)=O | 3 | 5
CCCNC(=O)C[C@H]1CC[C@@H]2[C@@H](COc3ccc(NC(=O)c4cccs4)cc3C(=O)N2C)O1 | -4 | 5
CC(C)NC(=O)Nc1cccc2c1O[C@@H](CN(C)Cc1ccc(Oc3ccccc3)cc1)[C@@H](C)CN([C@H](C)CO)C2=O | -15 | -13
C[C@@H]1CN([C@@H](C)CO)C(=O)Cc2cc(NS(=O)(=O)c3ccc(Cl)cc3)ccc2O[C@H]1CN(C)S(=O)(=O)c1cccs1 | -4 | -6
CC(C)CC#Cc1cnc2c(c1)C(=O)N([C@H](C)CO)C[C@@H](C)[C@H](CN(C)C(=O)CN1CCOCC1)O2 | 15 | 3
Cc1ccc(S(=O)(=O)Nc2ccc3c(c2)C(=O)N([C@@H](C)CO)C[C@@H](C)[C@H](CN(C)Cc2ccncc2)O3)cc1 | 13 | 3
CCCNC(=O)N1C[C@H](C)[C@H](OC)CN(C)C(=O)c2ccc(NC(=O)CCC)cc2OC[C@@H]1C | 10 | 4
CCCC(=O)Nc1ccc2c(c1)OC[C@@H](C)N(Cc1ccncc1)C[C@H](C)[C@@H](OC)CN(C)C2=O | 0 | 8
C[C@@H]1CN([C@H](C)CO)C(=O)c2cccc(NC(=O)NC3CCCCC3)c2O[C@H]1CN(C)S(C)(=O)=O | -1 | 3
C[C@@H]1CN([C@@H](C)CO)C(=O)c2cccc(NC(=O)C3CCOCC3)c2O[C@H]1CN(C)S(=O)(=O)c1cccs1 | 24 | 18
